# UUG fidelity: modulators of yeast start codon fidelity, primary screen, whole organism, S. cerevisiae, single point, plate reader; S. cerevisiae UUG-firefly luciferase reporter, luminescence/redox ratio; activity score, % at 18.7 µM; hit rate 0.13% among 350,000;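 active means replicate mean at a twofold rise or more, about +100% in these data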;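 further: firefly luciferase made from a UUG start codon reports start codon fidelity; reporter light over untreated wells divided by growth signal over untreated wells; some hits fall short of that in this replicate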
# Rce1 inhib: yeast Rce1p protease inhibitors, primary screen, biochemical, fluorescence, cell-free homogeneous; CAAX prenyl protease 2 (Saccharomyces cerevisiae (strain ATCC 204508 / S288c)), Q03530; yeast membranes, quenched prenylated peptide cleavage fluorescence; calls only; hit rate 0.27% among 290,000; AID 2563, 2010;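 active means fall in fluorescence gain of 50% or more versus controls, with final raw signal at or below 3038400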;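 further: plate controls were neutral control wells for no effect and wells lacking membranes for full effect; tested at 10 µM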
# Target sequence (Q03530 whole entry, looked up): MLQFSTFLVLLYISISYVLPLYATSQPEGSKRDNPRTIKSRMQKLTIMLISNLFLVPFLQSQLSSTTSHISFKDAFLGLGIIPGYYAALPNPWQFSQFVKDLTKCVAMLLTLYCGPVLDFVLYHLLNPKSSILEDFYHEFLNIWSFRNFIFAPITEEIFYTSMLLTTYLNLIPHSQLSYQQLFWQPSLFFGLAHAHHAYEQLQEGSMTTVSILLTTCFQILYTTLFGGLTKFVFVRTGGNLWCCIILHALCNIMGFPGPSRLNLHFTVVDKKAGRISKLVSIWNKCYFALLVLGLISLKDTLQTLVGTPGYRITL
# PABP FP inh: PABP poly(A) RNA binding inhibitors, primary screen, biochemical, fluorescence polarization, uHTS. Polyadenylate-binding protein 1 (Homo sapiens), P11940. inhibition, % at 35 µM. hit rate 1% among 290,000. AID 2014, 2009;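 active means 50% or more with normal probe brightness, or confirmed in later tests; about a fifth of its hits are not listed in these tables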;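 further: calls also rest on retests at 20 µM and on dose response follow-up; controls were probe without protein and protein plus probe with vehicle; some compounds called inactive have numbers as strong as hits; many hits fall short of the cut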
# Target sequence (P11940 whole entry, looked up): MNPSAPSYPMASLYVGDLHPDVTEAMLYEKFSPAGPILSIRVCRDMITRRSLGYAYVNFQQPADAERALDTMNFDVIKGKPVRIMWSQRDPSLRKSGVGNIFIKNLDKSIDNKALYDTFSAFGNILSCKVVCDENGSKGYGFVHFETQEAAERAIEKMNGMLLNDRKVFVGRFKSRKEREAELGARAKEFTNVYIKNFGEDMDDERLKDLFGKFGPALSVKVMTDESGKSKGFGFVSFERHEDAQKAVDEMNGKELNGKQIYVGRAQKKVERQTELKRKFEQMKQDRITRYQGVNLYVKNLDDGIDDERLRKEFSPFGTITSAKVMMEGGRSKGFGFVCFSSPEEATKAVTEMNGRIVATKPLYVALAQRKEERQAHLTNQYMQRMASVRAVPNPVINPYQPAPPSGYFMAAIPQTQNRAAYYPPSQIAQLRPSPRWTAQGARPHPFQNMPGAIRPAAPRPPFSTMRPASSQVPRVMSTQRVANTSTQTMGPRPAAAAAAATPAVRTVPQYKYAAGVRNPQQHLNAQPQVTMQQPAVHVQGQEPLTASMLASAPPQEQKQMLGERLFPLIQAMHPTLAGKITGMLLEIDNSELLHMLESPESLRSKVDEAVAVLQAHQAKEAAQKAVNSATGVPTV
# Env fusion inh: inhibitors of HIV-1 Env-driven cell-cell fusion, primary screen, HeLa-JRFL effector, CEM21 target cells, luciferase; hit rate 1.1% among 360,000; inhibition, % at 12.3 µM;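 active means mean replicate inhibition score of at least 50 and every replicate individually at or above 50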;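 further: 0% = plate neutral controls and 100% = maraviroc near 300 nM; one replicate is shown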
# eIF4H inh: human eIF4H binding inhibitors, primary screen, translation initiation inhibitor project, biochemical, uHTS, fluorescence polarization | Eukaryotic translation initiation factor 4H (Homo sapiens), Q15056 | hit rate 0.94% among 290,000 | eIF4H fluorescence polarization binding assay | inhibition, % at 35 µM;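 active means 50% or more with normal probe brightness, or confirmed in later tests; about a fifth of its hits are not listed in these tables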;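 further: calls also rest on retests at 20 µM and on dose response follow-up; 0% = protein and probe with vehicle and 100% = probe without protein; strong numbers were not always called active; many hits fall short of the cut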
# CSC inhib: cancer stem cell viability inhibitors, primary screen, luminescence. cancer stem cell-like cells viability. inhibition, % at 7.5 µM. hit rate 1.1% among 300,000;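 active means mean at 75% or more and at least half the replicates too; tested in HMLE shEcad cells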;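 further: 0% = median of negative and 100% = median of positive control wells; the first replicate is given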
# MT1-MMP act inh: blockers of MT1-MMP proenzyme processing, primary screen, HT1080 RFP-PRO-GFP cells, GFP/RFP fluorescence. Matrix metalloproteinase-14 (Homo sapiens), P50281. hit rate 0.061% among 360,000. GFP/RFP ratio change, % at 20 µM. GFP/RFP ratio fluorescence, overnight; percent of plate control window, DMSO zero;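 active means GFP/RFP ratio change of at least 30% with cell ATP level not reduced by more than half and red fluorescence within 50% of control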; further: strong numbers were not always called active
#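 Assay system: HT1080 RFP-PRO-GFP cells | Dosing: 20 µM single dose, 1% DMSO | Incubation: Cells overnight before dosing, compound overnight, 37 °C, 5% CO2 | Evaluation: GFP/RFP fluorescence ratio | Control set: DMSO-only wells and HT1080 RFP-L50D-GFP cell wells as references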
# eIF4H inh retest: recorded beside eIF4H inh, whose call it bears; inhibition, %; compound at 20 µM; confirmation average;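 mean of two retest wells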
# PABP FP inh retest: second read-out of PABP FP inh, no call of its own (marks repeat the call); inhibition, %; compound at 20 µM; confirmation repeats;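 mean of two retest wells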
# MT1-MMP act inh RFP: further read-out of MT1-MMP act inh, marked with its call; RFP signal change, %; measured here: RFP expression control read;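 0 = vehicle wells; hits needed this value within 50% of zero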
# Numbers without * were called inactive; i = inactive; · = not tested or not shown; & = joins results of further samples. A portion of the library; count on the stated rates, not on these rows.
SMILES,UUG fidelity,Rce1 inhib,PABP FP inh,Env fusion inh,eIF4H inh,CSC inhib,MT1-MMP act inh,MT1-MMP act inh RFP,others
CC(=O)Oc1cccc(N2C(=O)C3C(C2=O)C2C=CC3C23CC3)c1 (stereo unspecified),0,i,0,-42,8,7,6,7,
O=C(CN1CCN(Cc2ccccc2)CC1)NCc1ccccc1Cl,-13,i,6,12,-16,3,1,5,
Cc1cc(C(F)(F)F)nn1Cc1n[nH]c(=S)n1-c1ccc(F)cc1,·,i,8,-5,-1,·,4,8,
O=c1[nH]nc(-c2ccc(F)cc2)cc1Cc1ccc(F)cc1,-8,i,-4,17,2,-2,-1,-3,
Cc1c(O)ccc(NS(=O)(=O)c2ccccc2)c1C,·,i,-8,10,2,0,-3,-4,
COc1ccc2c(c1OC)C(=O)N(c1cccc(C)c1)C2=O,·,i,-1,·,-8,-1,-5,0,
CCCCc1ccc(-c2csc(/C(C#N)=C\c3ccco3)n2)cc1,·,i,-11,-9,55*,28,6,10,eIF4H inh retest=55*;PABP FP inh retest=35
Oc1c(C(Nc2nc3ccccc3s2)c2ccco2)ccc2cccnc12 (stereo unspecified),-15,i,6,-70,9,120*,-8,-4,
COc1ccc(-n2c(SCC(=O)Nc3nccs3)nnc2-c2ccoc2C)cc1,1,i,0,-75,-9,13,-1,6,
CC(=O)Nc1c(C(=O)O)[nH]c2ccccc12,-3,i,0,·,-8,0,5,6,
COC(=O)c1ccc(NS(=O)(=O)c2ccc3c(c2)n(C)c(=O)n3C)cc1,-10,i,0,-12,-10,-2,4,-4,
COc1ccc(C(=O)Nc2nncs2)cc1S(=O)(=O)N1CC(c2ccccc2)CC1=O (stereo unspecified),-7,i,2,-10,-8,15,0,-1,
C[C@H]1CN([C@@H](C)CO)C(=O)CCCn2nncc2CO[C@H]1CN(C)C(=O)Nc1ccc(N2CCCCC2)cc1,-13&14,·,·,-4,·,·,3,7,
COc1ccc(-c2cccc(NS(=O)(=O)c3cccc([N+](=O)[O-])c3)c2)nn1,-9,i,·,·,·,1,2,-8,
O=S(=O)(Nc1nc2ccccc2nc1Nc1ccc2c(c1)OCO2)c1ccc(F)cc1,-12,i,6,9,27,0,-18,-33,
Cc1cc2nc(C3CCCN(C(=S)Nc4ccccc4)C3)[nH]c2cc1C (stereo unspecified),-25,i,-3,·,0,-9,3,-3,
CCOC(=O)c1ccc(NC(=O)CSc2nnc(COc3ccccc3OC)n2CC)cc1,-12,i,-5,·,-6,-13,4,-2,
CCC1CCc2sc(C(=O)N(C)CC(=O)Nc3cccc(OC)c3)cc2C1 (stereo unspecified),13,·,·,4,·,8,-1,1,
Fc1ccc(C2CCCN2Cc2nc(Cc3ccccc3)no2)cc1 (stereo unspecified),·,i,-2,-11,-4,-3,-1,-1,
Cc1cccc(-n2cc(-c3ccccc3)[nH]c2=S)c1,-25,i,-3,-29,3,-9,4,3,
Cc1ccc(Cn2c(=N)n(CC(=O)c3ccc([N+](=O)[O-])cc3)c3ccccc32)cc1,-24,i,8,·,-1,2,-42,-8,
Cc1ccc(OCCC(=O)OCC(=O)Nc2ccc3[nH]c(=O)[nH]c3c2)cc1,·,i,·,-53,·,-7,-4,1,
O=C(NCCN1CCOC1=O)C1CCC(=O)N(CCc2ccc(Cl)cc2)C1 (stereo unspecified),15,i,-4,-2,-8,0,0,1,
N#Cc1c(NC(=O)c2cnccn2)sc2c1CCCC2,·,i,-18,-164,6,2,-7,-6,
O=C(NCCN1CCOCC1)c1ccc2c(c1)N(Cc1ccccc1F)C(=O)CS2,-6,i,10,-62,3,-7,5,5,
SMILES,UUG fidelity,Rce1 inhib,PABP FP inh,Env fusion inh,eIF4H inh,CSC inhib,MT1-MMP act inh,MT1-MMP act inh RFP,others
Cc1cc(C)c2nc(SCC(=O)N3CCCCC3)c(C#N)cc2c1,-3,i,5,·,-7,·,2,3,
Cn1cnnc1Sc1ccc(/C=C(\CCC(=O)O)c2nc3ccccc3s2)cc1[N+](=O)[O-],·,i,40,10,-6,-1,-2,-3,
COc1ccccc1NC(=O)Nc1nc(CC(=O)NC2CCCC2)cs1,-10,i,·,6,·,-10,12,-7,
CCOC(=O)c1cccc(NC(=S)NCc2ccc(C)cc2)c1,-21,i,-13,9,-10,-5,-2,0,
O=C(Nc1ccc(N2CCOCC2)c(Cl)c1)c1c(F)c(F)c(F)c(F)c1F,0,i,-8,·,-7,15,0,-2,
O=C(O)CCNC(=O)COc1ccc2c3c(c(=O)oc2c1)CCCC3,4,i,11,3,-7,0,0,1,
Cc1cc(C(=O)CSc2nnc(-c3cccnc3)n2-c2ccccc2)c(C)n1CC1CCCO1 (stereo unspecified),-25,i,10,·,12,-14,0,-2,
CC(=O)c1cc2c(cc1NC(=O)CCc1c(C)nc3ncnn3c1C)OCO2,0,·,·,-12,·,·,-2,0,
C[C@H](O)Cc1cc2ccccc2c(=O)o1,-2,·,·,-20,·,-5,2,2,
Cn1c(SCC(=O)N2CCCC2=O)nnc1-c1ccccc1F,-43,i,7,-18,3,2,-8,-2,
COc1ccccc1-c1ccc(NC2CCCC2)nn1,-8,i,-4,·,9,-15,4,0,
COc1ccc(C(=O)Oc2ccc(C(=S)N3CCCC3)cc2)cc1OC,·,i,4,·,-3,-14,·,·,
CCC(C)NC(=O)Cc1c(OC)ccc2cc(Br)ccc12 (stereo unspecified),·,i,5,12,3,-9,1,-11,
O=C(Oc1ccc2c3c(c(=O)oc2c1)CCCC3)c1cccs1,·,i,2,-324,-8,6,-1,4,
COc1cccc(C2c3c(oc4ccccc4c3=O)C(=O)N2Cc2ccco2)c1 (stereo unspecified),·,·,·,6,·,-25,0,-2,
Cc1ccc(C2CC(=O)NC(SCC(=O)OCc3ccccc3)=C2C#N)o1 (stereo unspecified),-9,i,18,·,3,62,28,-8,
O=c1oc2cc(O)ccc2cc1-c1ccc(F)cc1,-14,i,33,·,37,14,-3,-7,
CNC(=O)COc1ccc(S(=O)(=O)N2CCCC2)cc1,-12,i,4,-9,4,-19,1,1,
Cc1ccc(-n2nnnc2SCC(=O)N2CCCCC2)cc1,-5,i,4,-32,-6,-10,-4,9,
COc1ccc(S(=O)(=O)N2CCN(C(=O)c3oc4ccccc4c3C)CC2)cc1,-8,·,-6,16,-8,-5,1,-5,
O=C(CCN1CCOCC1)Nc1ccccc1,-26,i,2,-63,-1,-7,1,10,
CC#CCN1C=C(C(=O)OCC)C(C)N(Cc2ccc(Br)cc2)S1(=O)=O (stereo unspecified),18,·,·,31,·,·,-4,-7,
CCOc1ccccc1NC(=O)NC1(C(=O)NCc2cccnc2)CCCCC1,-3,i,8,-7,-1,-10,3,5,
CC(=O)c1cccn1S(=O)(=O)c1ccccc1,-9,i,-4,7,1,-16,0,4,
NS(=O)(=O)c1ccc(NC(=O)COC(=O)c2ccc([N+](=O)[O-])s2)cc1,17,i,-3,9,-13,-12,12,7,

# 4 records picked at random from the list so far, as already listed:
SMILES,UUG fidelity,Rce1 inhib,PABP FP inh,Env fusion inh,eIF4H inh,CSC inhib,MT1-MMP act inh,MT1-MMP act inh RFP,others
O=C(O)CCNC(=O)COc1ccc2c3c(c(=O)oc2c1)CCCC3,4,i,11,3,-7,0,0,1,
COc1ccccc1NC(=O)Nc1nc(CC(=O)NC2CCCC2)cs1,-10,i,·,6,·,-10,12,-7,
CC(=O)c1cccn1S(=O)(=O)c1ccccc1,-9,i,-4,7,1,-16,0,4,
COc1ccc(S(=O)(=O)N2CCN(C(=O)c3oc4ccccc4c3C)CC2)cc1,-8,·,-6,16,-8,-5,1,-5,

# Further records.
SMILES,UUG fidelity,Rce1 inhib,PABP FP inh,Env fusion inh,eIF4H inh,CSC inhib,MT1-MMP act inh,MT1-MMP act inh RFP,others
Cc1ncc(/C=C2\C(=O)Nc3ccccc32)[nH]1,·,i,4,1,-2,-2,·,·,
Cc1ccccc1Cn1nnc(-c2ccc(F)cc2)n1,-13,i,5,-10,-8,-5,-2,-6,
Cc1ccc(-c2cc(=O)[nH]c3ccccc23)cc1,6,i,·,·,·,8,-6,-3,
COc1ccccc1C1CCN(Cc2ccc(Cl)cc2Cl)CC1,-14,i,7,20,0,27,2,4,
Nc1[nH]ncc1N=Nc1ccc(Cl)cc1,-32,i,3,-150,0,10,4,1,
COc1ccc(NC(=O)CSc2nc3ccccc3c(=O)n2CCNC(C)=O)cc1,-6,i,0,2,1,-10,6,12,
NC(=O)CCc1c[nH]c2ccccc12,-3,i,8,·,-4,-11,4,5,
CC(=O)N1CCN(C(=O)c2cc(C)oc2C)CC1,-9,·,·,·,·,-20,-1,1,
CC(C)C[C@H](NC(=O)[C@H](Cc1ccccc1)n1c(=O)[nH]c2ccccc2c1=O)C(=O)N1CCC[C@H]1C(=O)O,2,i,4,·,-10,5,-1,3,
Cc1ccccc1OCCC(=O)Nc1cccc(S(=O)(=O)Nc2ccccc2Cl)c1,·,i,-4,20,4,0,0,-3,
O=C(Oc1ccc(/C=N/NC(=O)c2ccco2)cc1)c1ccccc1,1,·,·,·,·,-9,-1,5,
COC(=O)Cn1cc(/C=C/[N+](=O)[O-])c2ccccc21,4,i,8,-33,4,-6,-3,-1,
CN(C)c1nc(SCc2ccccc2)nc(N2CCOCC2)n1,-4,i,-5,-35,-10,-12,2,-3,
CC(=O)C1=C(O)C(=O)N(c2ccc(Br)cc2)C1c1cccc(F)c1 (stereo unspecified),-19,i,11,13,8,-2,9,-6,
O=C(NNC(=O)C1CCCCC1)c1ccncc1,-14,i,2,-4,1,-34,3,3,
Cc1[nH]n(C(N)=S)c(=O)c1N=Nc1ccc2ccccc2c1,·,i,-12,-90,0,·,3,4,
CCN(CC(=O)Nc1c(F)cccc1F)C(=O)CCSc1ccc(F)cc1,-12,i,·,-3,·,-12,0,-1,
CC1(C)CC(=O)C=C(NCC(=O)O)C1,-20,i,-2,·,-9,5,2,1,
CCCCCN(C(=O)CCC(=O)OCC(=O)c1cccc(OC)c1)c1c(N)n(CCCC)c(=O)[nH]c1=O,-3,i,-1,·,-10,39,-3,2,
CC1=C(C)[N+](=O)C2(O)CCCCC2(C)N1[O-] (stereo unspecified),-12,i,1,·,-3,11,1,2,
COc1ccc(CCC(=O)Nc2cc(S(=O)(=O)N3CCCCC3)ccc2N(C)C)cc1,-7,·,·,-11,·,12,0,0,
CN(C)CCNC(=O)c1cccc(-c2cc(NC=O)c3ncc(-c4cccc(C(F)(F)F)c4)n3c2)c1,-3,·,·,-37,·,·,-3,-2,
Cc1ccccc1NC(=O)Nc1cccs1,-11,i,21,·,1,-3,-2,0,
Cc1cc(=O)[nH]c(SCC(=O)NC2CCCCCC2)n1,-24,·,·,·,·,-8,1,0,
CCn1c(SCC(=O)Nc2cc(C)on2)nnc1-c1c[nH]c2ccccc12,-10,i,0,9,9,-7,-5,-4,

# Already shown: an excerpt of the list.
SMILES,UUG fidelity,Rce1 inhib,PABP FP inh,Env fusion inh,eIF4H inh,CSC inhib,MT1-MMP act inh,MT1-MMP act inh RFP,others
CC1=C(C)[N+](=O)C2(O)CCCCC2(C)N1[O-] (stereo unspecified),-12,i,1,·,-3,11,1,2,
COc1ccc(CCC(=O)Nc2cc(S(=O)(=O)N3CCCCC3)ccc2N(C)C)cc1,-7,·,·,-11,·,12,0,0,
CN(C)CCNC(=O)c1cccc(-c2cc(NC=O)c3ncc(-c4cccc(C(F)(F)F)c4)n3c2)c1,-3,·,·,-37,·,·,-3,-2,

# From PubChem BioAssay
